Compound activity: PubChem BioAssay, several laboratories
Beta apoptosis: beta cell apoptosis inhibition | AID 435005 | actives 0.8% (n = 300,000) | INS-1E cytokine-induced death, ATP luminescence, 48 h; percent of positive-control rescue, neutral wells zero | protection from apoptosis, % (concentration not given with the values);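 active means all replicates at 75% or more, or half of them and the mean; inconclusive means half reach 75% but not the mean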;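 further: 0% = cytokine-treated negative control wells and 100% = positive control rescue; higher means more ATP so stronger rescue from cytokine killing; wells of about 40 µL received 100 nL stock; the first replicate is given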
Bfl-1 A1 inh: inhibitors of the anti-apoptotic protein A1, read as caspase activation; caspase activation, % (concentration not given with the values); actives 0.066% (n = 330,000); MEF A1-2A-BIM cells, Caspase-Glo 3/7 luminescence, 3 h; percent of clofoctol response, vehicle zero; AID 2462;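 active means over half of replicate activation scores above 10%, or exactly half above 10 with the replicate mean above 10; inconclusive means replicate mean below 10 yet half the replicates above 10; inactive means over half of replicates below 10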;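 further: wells of about 30 µL received 50 nL stock; many hits fall short of the cut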
T cruzi inh: T. cruzi replication inhibition; T. cruzi beta-gal in NIH3T3, luminescence, 90 h; inhibition, % (no concentration beside the values); actives 1.4% (n = 300,000);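 active means mean inhibition across valid replicates above about 55%, limit read from the data; inconclusive means mean below that limit but half or more replicates reach it; inactive means mean below it, under half of replicates reach it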;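 further: signal also drops with host cell toxicity which is not excluded here; 0% = plate median of DMSO wells and 100% = zero luminescence signal; higher percent means less beta-gal luminescence so fewer parasites; stock transfer was 50 nL into about 50 µL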
ALR H2O2 inh: blocks human ALR sulfhydryl oxidase activity; P55789; purified ALR, DTT oxidation, H2O2 HRP-luminol luminescence; inhibition, % (no concentration beside the values); actives 3.8% (n = 290,000); AID 485317;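 active means mean and each replicate at 75% or more; inconclusive means only one of the two met; inactive means neither met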;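 further: stock transfer was 7.5 nL into about 7.5 µL; 0% = neutral wells and 100% = wells with inactivated enzyme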
Target sequence (P55789 whole entry, looked up): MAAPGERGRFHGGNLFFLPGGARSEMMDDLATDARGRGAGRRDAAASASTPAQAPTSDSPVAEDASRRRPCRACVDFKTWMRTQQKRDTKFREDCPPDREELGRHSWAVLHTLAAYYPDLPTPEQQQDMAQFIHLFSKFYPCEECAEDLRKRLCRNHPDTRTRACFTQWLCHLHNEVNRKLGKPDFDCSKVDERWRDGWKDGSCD
LANA-H2B inh: blocks KSHV LANA binding to histone H2A/H2B; Q9QR71; cell-free LANA-H2A/H2B peptide, fluorescence polarization; inhibition, % (no concentration beside the values); actives 0.6% (n = 320,000); AID 2629; in the data active means inhibition mostly above about 10%, no sharp cut-off; inactive means mostly below about 6.7%;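 further: stock transfer was 7.5 nL into about 10 µL; 0% = median of vehicle wells and 100% = median of positive control wells; one replicate is shown; the record names a cut of 25% in any replicate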
Ecoli rRNA inh: inhibitors of bacterial rRNA selective over humanized ribosomes; E. coli WT GFP vs humanized-ribosome RFP mutants, fluorescence, 24 h; active compounds read low; DMSO median 0, no signal -100; GFP signal change (wild-type ribosome), % (concentration not given with the values); actives 1.6% (n = 350,000); AID 720706;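 active means significant combined selectivity score with lowered wild-type GFP, culture density cut under 30%, mutant RFP and density less affected; inactive means any of these conditions unmet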; further: one replicate is shown; some compounds called inactive have numbers as strong as hits
Beta2AR agonist: human beta-2 adrenergic receptor agonism by FAP | P07550 | Am2.2-beta2AR cells, FAP receptor internalization, flow cytometry; reference of the scale not given here | response, % (test concentration not listed) | actives 0.43% (n = 340,000) | AID 504454;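 active means response above a set limit, near 3 SD of response in nonfluorescent compounds, cut at about 42% in these data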;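 further: stock transfer was 100 nL into about 11 µL; a reference agonist was the positive control; negative values mostly stem from fluorescent compounds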
Target sequence (P07550 whole entry, looked up): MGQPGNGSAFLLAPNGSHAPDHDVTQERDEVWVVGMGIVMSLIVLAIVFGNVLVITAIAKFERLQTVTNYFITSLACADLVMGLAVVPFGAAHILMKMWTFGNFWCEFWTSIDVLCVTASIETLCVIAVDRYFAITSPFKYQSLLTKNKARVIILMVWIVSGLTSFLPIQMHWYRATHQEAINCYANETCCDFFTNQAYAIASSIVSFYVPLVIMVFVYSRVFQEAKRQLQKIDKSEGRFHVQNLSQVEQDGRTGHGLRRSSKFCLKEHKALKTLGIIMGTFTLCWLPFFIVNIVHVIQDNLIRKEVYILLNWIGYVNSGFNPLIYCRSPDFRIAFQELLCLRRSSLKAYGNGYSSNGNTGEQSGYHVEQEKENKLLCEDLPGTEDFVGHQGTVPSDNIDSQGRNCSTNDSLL
Calb FLC: C. albicans growth modulation with fluconazole. actives 0.57% (n = 300,000). AID 1979. growth inhibition, % (no concentration beside the values). C. albicans CaCi-2 (fluconazole-resistant clinical isolate) + fluconazole, Alamar Blue growth, 48 h;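 active means most replicates above 75%; inconclusive means exactly half above 75%; inactive means most below 75%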;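 further: all wells also contain fluconazole at 8 µg/ml as a sub-toxic cotreatment; 0% = median of DMSO wells and 100% = median of geldanamycin control wells; wells of about 8 µL received 7.5 nL stock; the first replicate is given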
Ecoli rRNA inh OD600: second read-out of Ecoli rRNA inh, no call of its own (marks repeat the call); OD600 change, %; measured here: OD600 growth;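 optical density of the mix in the first replicate; 0 = DMSO median and -100 = no signal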
Ecoli rRNA inh RFP: also measured in Ecoli rRNA inh; calls as there; RFP signal change, %; measured here: RFP humanized mutant strains;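 first replicate; 0 = DMSO median and -100 = no signal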
* hit, by the source's call; i = inactive; ? = inconclusive; / = no result given.

SMILES	Beta apoptosis	Bfl-1 A1 inh	T cruzi inh	ALR H2O2 inh	LANA-H2B inh	Ecoli rRNA inh	Ecoli rRNA inh OD600	Ecoli rRNA inh RFP	Beta2AR agonist	Calb FLC
COC(=O)c1c(-c2ccc(SC)cc2)sc2ccccc12	-1	0.3	/	-18	-3.6	6	1	-2.7	-6	/
Cc1cc(C)c(S(=O)(=O)n2cnc3ccccc32)c(C)c1	-4	0.0	-20	-8	1.2	16	12	-1.7	2	29
CCN(CC)CCCNc1nc(SC)nc2sc3c(c12)CCN(C)C3	-5	0.3	3	-3	-5.4	/	/	/	/	-14
NC(=O)c1ccc(NC(=O)CSC2=Nc3ccccc3C3CC=NN23)cc1 (stereo unspecified)	-1	0.9	1	99*	-7.6	/	/	/	6	-8
CC1(/[N+]([O-])=C/c2ccc(Cl)cc2Cl)CCCCC1=O (stereo unspecified)	-3	-0.2	3	2	2.1	12	21	-0.6	2	7
CCCN(Cc1nnc(-c2ccccc2Cl)o1)C(=O)c1cc(S(=O)(=O)N2CCOCC2)ccc1F	/	0.9	7	-8	-4.5	-8	-4	4.0	4	2
CCOc1ccc2nc(NC(=O)CSc3nc(-c4ccccc4)c(C#N)c(=O)[nH]3)sc2c1	/	/	5	/	/	10	-1	-3.7	4	27
COc1ccc(NC(=S)N2CCC(NC(=O)c3ccc(OC)cc3)CC2)cc1	-1	-0.5	8	-1	-3.0	12	1	0.3	1	13
Cc1cccc(-c2nc(=S)c3c(o2)CCCC3)c1	-5	-2.8	-8	?	7.5	/	/	/	-17	25
c1ccc2c(c1)N1CCCN=C1N2CCN1CCCCC1	-2	-0.4	-23	-6	6.6	7	13	-1.3	-7	-12
CC(C)CNc1cc(N2CCCC2)ccc1[N+](=O)[O-]	3	-0.6	27	-14	-6.4	10	-8	6.0	-12	3
CCc1cccc2c(C(=O)CSc3nnc(-c4ccoc4C)n3C)c[nH]c12	-3	-0.6	-2	0	3.3	/	/	/	0	-2
CSc1ccccc1OCc1cc(C(=O)N2CCC(c3ccncc3)CC2)no1	/	-0.3	13	-11	6.6	-41*	-33*	-7.1*	2	-9
O=C1c2oc3ccccc3c(=O)c2C(c2cccc(F)c2)N1CCCO (stereo unspecified)	-8	1.3	-2	-2	-2.3	/	/	/	-14	3
C=CCNC(=O)CSc1nnc(-c2ccccn2)n1Cc1ccccc1	-8	0.2	-7	2	-5.3	3	1	0.8	-10	-3
Cc1cc(-c2nnc(-c3cccc(Cl)c3)o2)no1	1	-3.4	1	37	6.0	-7	10	2.5	-16	-1
COc1ccc(NC(=O)c2cncn2-c2ccccc2)cc1	-4	-0.1	-4	-6	8.1	6	16	-0.5	-9	5
CCCNC(=O)NCCc1ccncc1	0	0.0	-5	-2	3.0	/	/	/	-3	-3
CCN(CC)C(=O)N1CCn2c(nc3ccccc32)C1	-3	-0.1	0	-7	1.9	/	/	/	3	1
CCN(CC)S(=O)(=O)c1cccc(C(=O)N/N=C/c2ccc([N+](=O)[O-])o2)c1	-1	-0.7	56*	-144	-2.8	18	4	6.6	7	-2
CCN(CC(=O)Nc1cccc(OC)c1)CC(=O)Nc1cccc2ccccc12	3	0.6	/	-1	i	-6	-17	4.4	14	/
Cc1cccc(NC(=O)CCN2C(=O)C3C4C=CC(C4)C3C2=O)c1 (stereo unspecified)	-8	-0.3	2	7	5.7	-1	5	-1.9	3	-8
O=C(CSc1nccn1-c1ccccc1)NO	-10	0.0	-2	7	-5.0	4	5	11	7	-3
COc1ccc2c(c1)C1OCCC1C(c1ccco1)N2 (stereo unspecified)	19	-6.6	-14	-19	-3.8	/	/	/	-4	0
CNC(=S)NC1CC2CCCC(C1)N2Cc1ccccc1OC (stereo unspecified)	1	0.0	0	-2	0.7	-17*	-0.9*	3.1*	2	-10
CC(C)c1ccc(CN2C(=O)NC3(CCCCCC3)C2=O)cc1	-7	2.0	38	1	-1.0	0	-6	-0.6	-3	-4
CC(C)[C@H](NC(=O)OCc1ccccc1)C(=O)OCC(=O)NCCc1ccccc1	-6	0.5	-5	-8	1.0	1	9	0.9	3	-15
CN(C)c1ccnc2sc3c(SCc4ccc(Cl)cc4)ncnc3c12	-4	-3.2	5	?	1.0	/	/	/	0	7
CCC(Sc1ncccc1C(=O)OC(C)C)C(=O)N1CCOCC1 (stereo unspecified)	1	-1.0	4	-10	6.6	/	/	/	-1	1
COc1ccccc1OC(C)C(=O)N1CCN(Cc2ccc3c(c2)OCO3)CC1 (stereo unspecified)	-3	0.0	2	-7	3.8	4	7	-0.5	-11	3
O=C(NC(=S)NCCO)c1sc2ccccc2c1Cl	-2	-2.6	-13	-5	0.0	-8	-5	-0.8	-10	-18
COc1cccc(C2CC(c3cccs3)=NN2S(C)(=O)=O)c1 (stereo unspecified)	-1	-0.1	-5	-2	2.1	-18	-14	-2.7	0	1
CCN(CC(=O)Nc1ccc(NC(C)=O)cc1)C(=O)c1c(C)nn(-c2ccc(F)cc2)c1Cl	1	0.6	/	/	-3.4	6	10	3.3	5	/
N#Cc1cccc(NC(=O)CSc2nnc(-c3n[nH]c4ccccc34)o2)c1	1	-0.7	-30	2	4.9	15	15	2.1	-7	0
Cc1cccc(-c2cccc(NC(=O)C3CCCN(Cc4cccnc4)C3)c2)c1 (stereo unspecified)	-2	0.3	20	-11	-49	-19	-32	5.2	8	19
CN(C)S(=O)(=O)Oc1ccsc1C(=O)Nc1ccc(Cl)c(Cl)c1	-5	0.5	6	-4	-4.3	/	/	/	-4	17
COc1ccc(CCNC(=O)c2nonc2N)cc1OC	-5	-0.3	4	-13	-2.7	/	/	/	3	-1
CCOC(=O)C1CCN(S(=O)(=O)c2c(C(=O)N3CCCCC3)c(C)n(C)c2C)CC1	/	-1.1	-3	-3	-1.8	4	12	-3.6	-7	3
Cc1ccc(NC(=O)C2CCN(C(=O)N3CCOc4ccccc43)CC2)cc1	5	0.1	43	-4	0.8	6	-1	-0.2	-5	6
Cc1cccc2nc(CSc3nc4[nH]ncc4c(=O)n3-c3cccc(Cl)c3)cc(=O)n12	93*	0.7	-3	5	1.1	/	/	/	16	7

Three of the entries above in order of their number in Ecoli rRNA inh OD600, lowest first:
Molecule | Ecoli rRNA inh OD600
CCN(CC(=O)Nc1cccc(OC)c1)CC(=O)Nc1cccc2ccccc12 | -17
CNC(=S)NC1CC2CCCC(C1)N2Cc1ccccc1OC (stereo unspecified) | -0.9*
Cc1cccc(NC(=O)CCN2C(=O)C3C4C=CC(C4)C3C2=O)c1 (stereo unspecified) | 5

Continuation:
SMILES	Beta apoptosis	Bfl-1 A1 inh	T cruzi inh	ALR H2O2 inh	LANA-H2B inh	Ecoli rRNA inh	Ecoli rRNA inh OD600	Ecoli rRNA inh RFP	Beta2AR agonist	Calb FLC
COC(=O)c1ccc(/C=C/C(=O)c2ccc(OC)c(OC)c2)cc1	-3	0.2	20	99*	3.0	/	/	/	9	-16
CC(=O)Nc1ccc(S(=O)(=O)NCCSc2ccccn2)cc1	/	-0.8	2	3	-2.6	/	/	/	6	0
O=C(c1cc(COc2ccc(F)cc2F)on1)N1CC2C[C@@H]3CC1C[C@H](C2)C3	13	0.2	35	-5	-4.8	0	7	-3.5	-2	-17
CN1C[C@@H]2C(c3ccc(C(F)(F)F)cc3)C3(c4ccc(C#N)cc4)CC2(C3)[C@H]1c1ccccc1 (stereo partly specified)	12	-0.4	33	-11	-0.1	-3	-7	-10	-1	-10
COCC(C)n1c(C)cc(C(=O)COC(=O)CNC(=O)c2ccccc2)c1C (stereo unspecified)	1	1.1	-10	2	3.3	/	/	/	-17	-16
CCCCOc1ccccc1NC(=O)c1ccco1	-14	1.9	12	-8	3.0	/	/	/	-10	-8
CCOc1ccccc1N(CC(=O)Nc1ccc(OC)cc1)S(=O)(=O)c1ccccc1	0	0.2	-6	-30	1.2	-5	2	5.1	8	-6
COc1ccc(C(C)=O)cc1CSc1nnc(Nc2c(C)cccc2C)s1	5	-0.9	15	-6	-0.2	-19	-14	-2.2	-11	4
CC(C)C(C)(C#N)NC(=O)CSc1nc2scc(-c3ccco3)c2c(=O)n1-c1ccccc1 (stereo unspecified)	-9	-0.4	15	4	-1.8	/	/	/	-7	8
CCc1nnc(NC(=O)C2CCC(CNc3c(N4CCC(C)CC4)c(=O)c3=O)CC2)s1 (stereo unspecified)	1	-0.4	-1	-6	-1.4	-1	8	2.8	-4	-1
COc1ccc(C(=O)C2CCN(CC(=O)Nc3ccccc3F)CC2)cc1	2	-0.6	6	-5	-2.8	-2	-17	4.2	3	1
CCn1cnc2scc(-c3ccc(C)c(C)c3)c2c1=O	-7	-0.8	-9	/	-5.7	-27	-44	-9.7	-10	-21
O=C(Oc1ccc2c(c1)OCO2)c1ccc(F)cc1Cl	0	-0.7	-5	/	0.0	/	/	/	-3	-19
O=C(NCC(=O)N(c1cnc2ccccc2c1)C(C(=O)NC1CCCC1)c1ccncc1)c1ccco1 (stereo unspecified)	-8	0.5	-22	2	-2.8	/	/	/	0	4
CCOC(=O)c1sc2nc(C)nc(NC3CCC(O)CC3)c2c1C (stereo unspecified)	-8	0.1	-11	4	-3.7	2	5	-0.3	34	65
CCN(CC(=O)Nc1ccc(NC(C)=O)cc1)C(=O)c1c(-c2c(F)cccc2Cl)noc1C	2	-0.3	1	5	-3.3	2	10	1.0	2	2
CC(=O)Nc1ccc(S(=O)(=O)N2CCC3(CC2)OCCO3)cc1	2	0.3	-21	-3	4.1	16	14	1.7	-3	-14
OC1CCCN(CC(O)c2ccccc2)C1 (stereo unspecified)	-1	0.4	-3	-5	-4.5	10	12	-2.1	-1	1
COc1ccc(CCN2C(=O)CC(NNc3ccc([N+](=O)[O-])cc3)C2=O)cc1OC (stereo unspecified)	/	-1.0	6	-14	0.7	0	2	2.0	6	?
N#C/C(=C\c1c(N2CCC(C(N)=O)CC2)nc2ccccn2c1=O)S(=O)(=O)c1ccc(Cl)cc1	-2	0.5	-6	-1	-4.3	7	7	0.7	-14	1
CC(C)(C)c1cc(CCC(=O)N2CCCC2)cc(C(C)(C)C)c1O	0	0.2	27	-1	-2.1	-24	-25	-5.5	-6	-39
CCSC1=C(C#N)C2(CCCCC2)C(C#N)C(=O)N1 (stereo unspecified)	3	-0.8	-2	58	3.3	/	/	/	3	-16
COc1cn(-c2ccccc2)nc1C(=O)NCc1ccccc1	/	-0.6	7	-7	-2.4	-1	-1	-8.8	-7	2
CCN(CC(=O)Nc1ccc(OC)cc1)C(=O)c1cc(S(=O)(=O)N2CCOCC2)ccc1N1CCCC1	12	0.2	6	-3	-2.1	2	4	-1.2	-9	-5
Cc1nc(C(=O)O)nn1-c1ccc([N+](=O)[O-])cc1	1	-0.4	-13	-11	1.2	14	11	-2.2	1	-4
CCOC(=O)CCSc1cc(C)c2ccccc2n1	1	0.5	-6	0	-1.1	-12	-2	7.0	-2	-13

Not all compounds are listed; count on the stated rates, not on these rows.
